# Screening results deposited in PubChem by SRMLSC.
# H5N1 CPE – MDCK cell protection from H5N1 avian flu; cytopathic effect, luminescence, 72 h; stronger effect = higher value; no value below 0 was filed and about half of the inactive calls have no number; reference of the scale not given here; inhibition, % at 50 µM; 0.07% of 96,000 active; in the data active = inhibition above about 25%
# Starred values were filed as active, the others as inactive; i = inactive. The list is partial, so the mix of outcomes need not match the whole.
SMILES,H5N1 CPE
O=P(O)(O)CCP(=O)(c1ccccc1)c1ccccc1,0.1
COc1ccc(OC)c(-c2cc(C(=O)Nc3c(C)nn(Cc4ccccc4C)c3C)no2)c1,0.7
CCOC(=O)c1c2ccc(OCC(=O)N/N=C/c3ccccc3C(F)(F)F)cc2n2ccccc12,i
COc1ccc(CNC(=O)Cn2c(=O)oc3ccccc32)cc1OC,0.5
Cc1ccccc1NC(=O)C1CCCN(S(=O)(=O)c2cnc[nH]2)C1 (configuration not stated),0.2
O=C(COc1ccccc1)Nc1nnc(-c2ccc3c(c2)CCCC3)o1,2.9
COc1ccc(C(=O)O/N=C(\N)Cc2ccc(Cl)cc2)cc1OC,1.5
Cc1cc(NC(=O)c2ccc3c(c2)C(=O)N(C2CCCCC2)C3=O)no1,i
COCCNC(=O)CSCc1nc(-c2ccc(SC)cc2)oc1C,0.7
Cc1cccc(N2C(=O)CC(Sc3nc(C)cc(C)n3)C2=O)c1 (configuration not stated),i
CCOC(=O)N1CCC(Nc2c(-c3ccccc3)c(=O)c2=O)CC1,i
CCOC(=O)c1ccc2c(c1)nc(SCc1cn3ccsc3n1)n2CC,i
COc1ccc(OC)c2sc(NC(=O)c3ccc(Cl)s3)nc12,i
O=C(c1cc(C2CC2)on1)N1CCN(C(c2ccccc2)c2ccccc2)CC1,0.1
Cc1cccc(-n2c(N)cc(=O)[nH]c2=S)c1C,i
O=C(Cn1cnc2sc3c(c2c1=O)CCCC3)NCCCC(=O)N1CCC2(CC1)OCCO2,i
CC(=O)c1cc(-c2ccccc2)n(CC(=O)N2CCC(N3CCCCC3)CC2)c1C,0.8
CCn1nccc1C(=O)Nc1cc(Cl)ccc1Cl,i
Cc1ccc(S(=O)(=O)CCC(=O)OCC(=O)Nc2cc(C)on2)cc1,1.3
Cc1cc(-c2ccccc2)nc(N(C)NC(=O)c2cccc(C(F)(F)F)c2)c1S(C)(=O)=O,i
Cn1c(SCC(=O)N2CCCCC2)nnc1-c1ccc(S(=O)(=O)N2CCOCC2)cc1,i
O=C(CSc1nc(-c2ccccc2)cc(=O)[nH]1)N1CCOCC1,0.4
CNc1nc(OC)nc(N2CCOCC2)n1,i
COC(=O)CSc1nc(NC(C)C)nc(N2CCOCC2)n1,i
COC(=O)Nc1c(C(=O)OC)cc(OC)c(OC)c1OC,0.5
CCOC(=O)C1CN(C)CCC1=O (configuration not stated),i
CC(C)N(C(=O)CSc1nnc(-c2cc3ccccc3cc2O)n1Cc1ccco1)C(C)C,i
O=C1c2ccccc2N2C(=O)c3ccccc3C2N1Cc1ccco1 (configuration not stated),4.5
O=C(CSc1nc2ccccc2c(=O)n1NC(=O)Cc1ccccc1)NCCc1ccccc1,i
Cc1ccc(S(=O)(=O)N2CCN(C(=O)CN3CCc4ccccc4C3)CC2)cc1,2.6
CN(C)c1ccc(NC(=O)CN2CCC(C(=O)c3ccc(F)cc3)CC2)cc1,2.2
O=C(NCC(c1cccnc1)N1CCN(c2ccccc2F)CC1)OCc1ccccc1 (configuration not stated),0.5
Cc1ccc(-n2[nH]c(C)c(/C=N/c3ccccn3)c2=O)cc1,i
COc1cc(C(=O)OCC(=O)c2c[nH]c3ccccc23)ccc1OCC(=O)N1CCOCC1,i
O=C(c1ccco1)N1CCN(S(=O)(=O)c2ccc3c(c2)CCN3C(=O)C2CC2)CC1,2.5
O=C(CSc1nnc(Cc2cc(=O)[nH]c(=O)[nH]2)n1-c1ccccc1)N1CCCC1,i
CCc1cccc(CC)c1NC(=O)c1cccc(NC(=O)c2ccccc2)c1,i
Cc1cc(C)nc(SCc2nnc(SCC(N)=O)n2Cc2ccco2)n1,0.1
O=C(COC(=O)/C=C/c1cnc2ccccc2n1)NCC(F)(F)F,1.2
Cc1ccc(NC(=O)C2C3/C=C\CCCCC32)cc1C (configuration not stated),i
O=C(NCCN1CCOCC1)Nc1ccc(Cl)cc1Cl,i
CC1CCCCN1CC(=O)NCc1ccc2c(c1)OCO2 (configuration not stated),0.6
Cc1cccc(C)c1N1CCN(c2ccc3nnc(C(F)(F)F)n3n2)CC1,i
Cc1csc(NC(=O)c2ccccc2O)n1,0.7
COc1ccc(CNc2cccc(F)c2)cc1Br,i
O=C(Nc1ccccc1C(=O)OC1CCOC1=O)c1ccco1 (configuration not stated),i
COc1ccc(C2CC(c3ccc(OC)cc3)n3nc(NC(=O)c4ccco4)nc3N2)cc1 (configuration not stated),i
Cn1c(=O)n(CC#N)c2ccccc21,1.2
C=COCCNC(=O)Nc1ccc(Cl)cc1Cl,i
CCOc1ccc(OCCOCCN2CCc3ccccc3C2)cc1,i
# (continued)
SMILES,H5N1 CPE
O=C(CSc1nnc(-c2cccs2)n1Cc1ccccc1)N1CCc2ccccc2C1,1.2
COC(=O)C(CC(C)C)NC(=O)c1ccc([N+](=O)[O-])cc1 (configuration not stated),i
C/C(=N\O)C1(C)N(O)C(C)(C)C(c2ccc(F)cc2)=[N+]1[O-] (configuration not stated),i
CN1CCN(c2nc(-c3ccc(Br)cc3)nnc2-c2ccccc2)CC1,i
COC(=O)c1nn(-c2ccccc2)nc1-c1nn(-c2ccccc2)nc1C(=O)OC,i
CSc1ccc(Cl)c(C(=O)NCCOc2cc(C)ccc2C(C)C)c1,i
CCCOc1ccccc1C1NC(=O)NC(C)=C1C(=O)OCCOC(C)C (configuration not stated),i
CCOc1ccc(NC(=O)Cn2nnc(-c3ccccc3NC(=O)C3CC3)n2)cc1,0.1
O=c1cc(CO)oc(C(Nc2ccccn2)c2ccc(F)cc2)c1O (configuration not stated),i
CCOC(=O)c1ccc(NC(=O)CCC(=O)OC)cc1,i
Cc1cccc(OCc2nnc(SCC(=O)Nc3cc(C)on3)n2C)c1,0.4
O=C(CN1CCCN(Cc2ccc(F)cc2Cl)C1=O)NCc1ccccc1,i
CCOC(=O)c1c(C)[nH]c(C(=O)OCC(=O)Nc2cc(Cl)ccc2OC)c1C,i
COc1cccc(C2C(C(=O)OCc3ccccc3)=C(C)Nc3ncnn32)c1OC (configuration not stated),2.6
Cc1cccc(OCc2nc3ccccc3c(=O)n2N)c1,1.1
CSc1nsc(SCC(=O)N2CCN(c3ccccc3)CC2)n1,0.1
Cc1ccc(S(=O)(=O)N2CCOCC2)cc1C(=O)O,0.4
Cc1[nH]n(-c2ccccc2)c(=O)c1C=Nc1cnc2ccccc2c1,i
O=S(=O)(c1ccc2c(c1)OCCO2)N1CCC(c2nc3ccc(Cl)cc3[nH]2)CC1,i
S=c1[nH]nc(C2COc3ccccc3O2)o1 (configuration not stated),i
COc1ccc(CC(=O)NC(C)c2nnc(SCc3nc4ccccc4c(=O)[nH]3)n2C)cc1 (configuration not stated),0.5
Cc1cc2oc(=O)cc(Cn3ccnc3)c2cc1C,i
Cc1cc(C)c(C)c(S(=O)(=O)NCc2cccnc2)c1C,0.8
CC(C)(C)NC(=O)CN(C(=O)Cn1nnc(-c2ccccc2F)n1)c1cccc2c1CCCC2,0.7
COc1ccc(-n2c(=O)c3ccccc3n(CC(=O)NC3CCCCC3)c2=O)cc1,0.1
COc1ccc(C(C)=O)cc1COC(=O)c1ccc2c(c1)OCO2,0.1
NC(=O)C[n+]1cccc2ccccc21,i
O=C(Nc1ccc2c(c1)OCO2)C1CC(c2ccc(Cl)cc2)=NO1 (configuration not stated),i
O=C(NC1CC2CCCC(C1)N2CC(=O)N1CCCc2ccccc21)C1CCCCC1 (configuration not stated),i
CC(C)(C)n1ncc2c(=O)n(CC(=O)NCc3ccc(F)cc3)cnc21,i
CC12C(=O)N(c3nccs3)C(=O)C1C1C=CC2C1 (configuration not stated),1.1
CC(C)Oc1ccccc1C1CC(=O)Nc2cc3c(cc21)OCO3 (configuration not stated),3.1
Cc1ccc2cc(CN(C(=O)c3cccnc3)C(C)C)c(=O)[nH]c2c1,0.6
CC1(C)Cc2c(ccc3ccccc23)C(c2cc3ccccc3oc2=O)=N1,i
CCOc1ccc(C(=O)NCC(C)C)cc1,0.3
O=C(Nc1ccc(N2CCCCC2)cc1)c1ccc(F)cc1,i
Cc1ccc(-c2cc3nn(-c4ccccc4)c(N)c3c(=O)o2)cc1,0.1
CC(Sc1nc(N2CCOCC2)nc(N2CCOCC2)n1)C(=O)Nc1ccccc1 (configuration not stated),0.3
CCNC(=S)N1CCN(C(=O)c2ccco2)CC1,i
NC(=O)c1c(N)sc2c1CCCC2,1.4
CCOC(=O)CCSc1nc2c(c(C(F)(F)F)c1C#N)CCC2,i
CC1(C)Cc2nc3sc4c(SCC(=O)NCc5ccco5)ncnc4c3cc2CO1,2.4
CCOC(=O)c1c(C)[nH]c(C(=O)COC(=O)C2(C)CC2(Cl)Cl)c1C (configuration not stated),0.9
CCCN(C(=O)Cc1nc(N)n[nH]1)C1(C(=O)Nc2c(C)cccc2C)CCCCC1,0.9
COc1ccc(C2=[N+]([O-])C(C)(C)N(O)C2(C)C)cc1,i
COCCCNS(=O)(=O)c1ccc(S(=O)(=O)N2CCCC2)cc1,1.1
Oc1ccc(CNc2ccccc2F)c2cccnc12,i
CC(=O)c1cccc(NC(=O)C2CCN(S(=O)(=O)c3ccc(F)cc3)CC2)c1,16
CCC(Sc1nc(C)cc(=O)[nH]1)C(=O)Nc1nnc(C)s1 (configuration not stated),0.7
COc1cc2[nH]c3c(=O)n(CCN(C(C)C)C(C)C)cnc3c2cc1OC,0.9
# Remaining list, next part:
SMILES,H5N1 CPE
CCC1(c2cccc(Cl)c2)NC(=O)N(Cc2cc(C(=O)OC)c(C)o2)C1=O (configuration not stated),i
O=C(NCc1ccc2c(c1)OCO2)c1ccncc1,1.9
CCCCC(=O)Nc1cc(N(C)C)nc2ccccc12,0.8
COc1cc(/C=C(/C#N)C(=O)NCCc2c[nH]c3ccccc23)ccc1OCc1ccccc1F,i
CCOc1cc2[nH]c(=O)n(CCCCC(=O)N3CCCCCC3)c(=O)c2cc1OCC,i
CCOC(=O)CN1CC23C=CC(O2)C(C(=O)NCc2ccc(F)cc2)C3C1=O (configuration not stated),i
COc1ccccc1OCC(O)Cn1nc(C)cc1C (configuration not stated),0.1
CCOc1cc(/C=C2\SC(=S)N(Nc3ccccc3)C2=O)ccc1O,i
O=C1CCC(=O)N1CN(C(=O)c1ccco1)c1ccc(Cl)c(Cl)c1,0.8
COc1ccc(-c2cc(C(F)(F)F)nc(SCCC(=O)Nc3cc(C)on3)n2)cc1,i
N#CCCn1ncn(-c2ccccc2)c1=S,i
COC(=O)c1sc(NC(=O)c2cc3c(s2)CCCC3)nc1C,i
CCCCn1c(SCC(=O)Nc2ccccc2C(F)(F)F)nc2ccsc2c1=O,i
CCc1sc(C(=O)NCc2cc(C)n(C)n2)cc1Br,1.4
Cn1c2c(c(=O)n(C)c1=O)CN(Cc1ccc3c(c1)OCO3)CN2,i
COC(=O)C1=NN(C(=O)c2ccc(C)cc2)C(O)(c2ccc(Cl)cc2)C1 (configuration not stated),0.1
CCN(CC)S(=O)(=O)c1ccc2[nH]cc(C(=O)NCCc3ccccc3)c(=O)c2c1,0.9
COCCCn1c(SCC(=O)Nc2cccc(C)n2)nnc1-c1ccco1,0.1
CSc1nsc(SC)c1C(=O)NCCNS(=O)(=O)c1ccc(C)cc1,i
NC(=O)c1ncc(C(F)(F)F)cc1Oc1cccc(C(F)(F)F)c1,0.5
CCOC(=O)NC(Nc1sc2c(c1C(N)=O)CCCC2)(C(=O)OCC)C(F)(F)F (configuration not stated),0.3
O=C(NCc1ccc(F)cc1)C1CC(=O)N(CCc2ccccc2)C1 (configuration not stated),i
CCCCOC(=O)CSc1nnc(-c2ccc(Cl)cc2Cl)o1,0.0
O=C1CCC2CCCCC2(O)O1 (configuration not stated),0.2
CCOC(=O)CC(=O)CSc1nc2ccc(C)cc2cc1C#N,i
COC(=O)C1=C(N)c2ccccc2C1(C#N)c1ccccc1 (configuration not stated),0.1
CCNC(=O)CN1c2cccc3cccc(c23)S1(=O)=O,0.5
Nc1cc(Cl)ccc1Oc1ccc(Cl)cc1,i
CCOC(=O)C1C(=O)NC(c2ccccc2)=NC1c1ccc(Cl)cc1 (configuration not stated),i
O=C(O)CCc1ccc(-c2ccc(Cl)cc2)o1,0.5
CC(C)(C)c1nc2ccccc2c2nnc(SCC(=O)Nc3nc4ccccc4s3)n12,0.2
O=[N+]([O-])c1ccc(N2CCCCCC2)c(S(=O)(=O)N2CCCCC2)c1,2.1
CCOc1ccccc1OCC(=O)O,0.2
CCOC(=O)c1cnn2c(C(F)F)cc(C3CC3)nc12,0.5
O=C(Nc1nnc(SCc2ccccc2)s1)c1cc2c(s1)CCCC2,i
CCOC(=O)c1c(C)oc2c1c(C(c1ccncc1)N1CCOCC1)c(O)c1ccccc12 (configuration not stated),0.4
Cn1cc(Br)c(C(=O)NC2CCCCC2)n1,i
CC(NC(=O)c1ccc(Cl)cc1)C(=O)NC1=NCCS1 (configuration not stated),i
CCN(CC)C(=O)N1CCC(NC(=O)c2ccc(C(C)(C)C)cc2)CC1,1.0
CC(C)N(C(=O)CSc1ncnc2sc(-c3ccccc3)cc12)C(C)C,i

# Another view of 16 compounds above.
mol | H5N1 CPE
CCOC(=O)CC(=O)CSc1nc2ccc(C)cc2cc1C#N | i
COC(=O)C1=C(N)c2ccccc2C1(C#N)c1ccccc1 (configuration not stated) | 0.1
CCNC(=O)CN1c2cccc3cccc(c23)S1(=O)=O | 0.5
Nc1cc(Cl)ccc1Oc1ccc(Cl)cc1 | i
CCOC(=O)C1C(=O)NC(c2ccccc2)=NC1c1ccc(Cl)cc1 (configuration not stated) | i
O=C(O)CCc1ccc(-c2ccc(Cl)cc2)o1 | 0.5
CC(C)(C)c1nc2ccccc2c2nnc(SCC(=O)Nc3nc4ccccc4s3)n12 | 0.2
O=[N+]([O-])c1ccc(N2CCCCCC2)c(S(=O)(=O)N2CCCCC2)c1 | 2.1
CCOc1ccccc1OCC(=O)O | 0.2
CCOC(=O)c1cnn2c(C(F)F)cc(C3CC3)nc12 | 0.5
O=C(Nc1nnc(SCc2ccccc2)s1)c1cc2c(s1)CCCC2 | i
CCOC(=O)c1c(C)oc2c1c(C(c1ccncc1)N1CCOCC1)c(O)c1ccccc12 (configuration not stated) | 0.4
Cn1cc(Br)c(C(=O)NC2CCCCC2)n1 | i
CC(NC(=O)c1ccc(Cl)cc1)C(=O)NC1=NCCS1 (configuration not stated) | i
CCN(CC)C(=O)N1CCC(NC(=O)c2ccc(C(C)(C)C)cc2)CC1 | 1.0
CC(C)N(C(=O)CSc1ncnc2sc(-c3ccccc3)cc12)C(C)C | i
